Bead autofluor = compound fluorescence in toxin protease inhibitor counterscreen; fluorescence intensity (no concentration beside the values); AID 624483; compound autofluorescence counterscreen, microsphere flow cytometry; active compounds read high; 3.1% of 360,000 active;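 active means at least 3 SD above the mean of all compounds, about 16000 in these data; inconclusive means too few beads counted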;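 further: 100 nL of 1 mM stock went into each well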
Mtb hypoxia rep = PubChem AID 1159583. M. tuberculosis hypoxia-regulated fluorescent reporter, fluorescence. fluorescence inhibition, % (concentration not given with the values). 0.1% of 300,000 active;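 active means 35 to 45% if threefold the growth effect, above 45% if 1.5-fold the growth effect; inactive means the rest, general growth blockers included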;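 further: wells of about 50 µL received 100 nL stock; 0% = vehicle wells and 100% = reference inhibitor wells; whole bacteria with a GFP reporter of the hypoxia response; strong numbers were not always called active; many hits fall short of the cut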
PrP UTR inh = inhibition of PrP 5' UTR reporter expression. cell-based PrP 5' UTR mRNA reporter, plate reader. inhibition, % (no concentration beside the values). AID 488862, 2010. 0.35% of 340,000 active;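 active means every replicate at 50% or more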;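 further: 0 = median of the neutral control wells; tested in H4 reporter cells; numbers are from one replicate; inactives centre near -14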
Sa ugtP lethal = growth inhibition of ugtP-null S. aureus, primary screen, RN4220 ugtP deletion, OD600. 16 h; some inactives read as strong as hits. AID 1259309, 2017. 0.54% of 330,000 active. growth inhibition, % (no concentration beside the values);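 active means z-score under -3 and OD600 up to 0.15 on both plates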;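 further: plate controls were untreated wells for no effect and antibiotic for full effect; wells of about 80 µL received 100 nL stock; the first replicate is given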
RN4220 kill = growth inhibition of S. aureus RN4220, primary screen, OD600; 0.33% of 330,000 active; AID 1259311, 2017; 16 h; inhibition, % (no concentration beside the values);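 active means z-score of -3 or lower and OD600 up to 0.18 on both plates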;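 further: plate controls were untreated cells for no effect and reference antibiotic for full effect; stock transfer was 100 nL into about 80 µL; one replicate is shown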
BJeLR viability = MLPCN primary cell-based screen for lethality selective to Ras in HRASV12 cells; BJeLR (HRASV12) viability, CellTiter-Glo ATP luminescence, 48 h; reference of the scale not given here; inhibition, % (concentration not given with the values); 0.17% of 300,000 active;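 active means replicate mean above 50%; inconclusive means above 50% but judged a plate artefact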;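 further: 50 nL library stock added to about 25 µL; numbers are from one replicate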
Mtb hypoxia rep growth = further read-out of Mtb hypoxia rep, marked with its call; growth inhibition, %; measured here: M. tuberculosis growth (absorbance);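 0% = vehicle and 100% = reference antibiotic; read after six days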
* hit, by the source's call; ? = inconclusive; nt = no result given. Compounds as they come. Share with any hit: about 4.1%.

SMILES	Bead autofluor	Mtb hypoxia rep	Mtb hypoxia rep growth	PrP UTR inh	Sa ugtP lethal	RN4220 kill	BJeLR viability
CCCCNC(=O)Cn1c(-c2ccc(OC)cc2)noc1=O	8276	1.8	-8.0	-2.2	16.3	8.2	0.5
Cc1cc(NC(=O)CSc2nccn2-c2cccc(F)c2)no1	2858	18.0	6.6	1.6	-1.0	2.1	nt
CC(C)(C)C(Cn1ccnc1)NC(=O)c1ccc2nc(C3CC3)oc2c1 (stereo unspecified)	5595	8.6	15.7	-9.8	2.9	1.0	-5.5
O=[N+]([O-])c1c(N2CCN(CCO)CC2)nc2ccccn12	3547	10.1	-0.3	-15.9	2.0	1.8	-0.5
CC(C)c1nnc(NC(=O)CCC(=O)NC2CCCc3ccccc32)s1 (stereo unspecified)	2521	-0.7	7.1	-13.7	8.4	-1.8	-4.0
O=C(O)c1ccccc1C(=O)NCc1c(Cl)cccc1Sc1ccc(Cl)cc1	3039	6.4	-4.4	-22.1	12.5	6.6	2.5
CCn1c(SCC(=O)NC2=NCCS2)nnc1C(C)NC(=O)c1ccccc1Br (stereo unspecified)	5937	-3.0	-6.8	-10.4	6.6	3.4	-3.4
Cc1ccc2c(c1)N(CC(=O)NCc1cccnc1)C(=O)CO2	8482	1.1	4.1	-24.8	-0.2	2.3	-3.0
C[C@H](NC(=O)CCCOc1ccc(Cl)cc1Cl)c1nnc2ccccn12	6059	8.3	0.6	-10.5	4.7	4.1	11.4
CCCCNCCOCCSc1ccc(Cl)cc1	21188*	9.9	4.3	-29.1	-3.2	2.3	0.3
CC(=O)c1ccc(C(=O)N2CCc3c([nH]c4ccccc34)C2c2ccccn2)s1 (stereo unspecified)	4796	-3.3	8.1	-14.6	6.5	-1.0	0.6
N#Cc1c(N=Cc2ccc(-c3ccccc3C(=O)O)o2)sc2c1CCCC2	nt	15.9	8.0	nt	8.0	5.7	nt
O=S(=O)(NN=C/C=C/c1ccccc1)c1ccc(Cl)cc1	nt	-3.6	-9.4	nt	-4.5	4.4	nt
c1ccc(OCc2nn3c(-c4ccco4)nnc3s2)cc1	9740	nt	nt	-26.5	3.7	7.2	-0.8
O=C(Nc1cc(C(F)(F)F)ccc1N1CCOCC1)c1n[nH]c(=O)c2ccccc12	4068	5.3	-0.6	-10.1	98.0*	99.7*	-2.4
Cc1cc(NC(=O)c2n[nH]c(=O)c3ccccc23)ccc1Br	nt	1.1	9.2	nt	-2.6	3.5	2.6
CC(NC(=O)COc1ccc([N+](=O)[O-])cc1)c1ccccc1 (stereo unspecified)	1964	2.0	0.9	8.0	6.5	-1.0	0.0
COc1cc(COCC(O)CN2C(C)CCCC2C)cc(OC)c1OC (stereo unspecified)	3714	-3.5	-3.0	-28.9	1.3	3.5	-3.9
CC(C)c1ccc(N2C(=O)CC(Sc3ncccn3)C2=O)cc1 (stereo unspecified)	3590	-13.4	-4.0	-0.5	3.3	0.4	0.4
CCN1CCN(C(=O)c2cc(S(=O)(=O)N3CC(C)CC(C)C3)ccc2Cl)CC1 (stereo unspecified)	?	6.5	7.9	-21.8	3.3	1.8	nt
O=C(COc1ccccc1Br)N1CCN(C(=O)c2cccs2)CC1	nt	14.1	9.1	-9.2	5.3	6.0	nt
O=C(NCCC1=CCCCC1)c1cc2c(s1)CS(=O)(=O)C2	9519	18.3	14.3	-24.7	4.9	1.1	9.3
CCOC(=O)c1c(Cl)c(C)nn1-c1nc(OC)cc(OC)n1	2014	-5.4	-0.8	-16.9	3.0	4.8	-18.4
Cc1nc2ccc(C(=O)N3CCN(Cc4ccccc4)CC3)cc2[nH]1	3729	12.3	-2.8	-10.6	-4.1	-0.1	-2.5

Full records, quoted from the list:
Shown for O=C(NCCC1=CCCCC1)c1cc2c(s1)CS(=O)(=O)C2 → Bead autofluor: 9519; Mtb hypoxia rep: 18.3; Mtb hypoxia rep growth: 14.3; PrP UTR inh: -24.7; Sa ugtP lethal: 4.9; RN4220 kill: 1.1; BJeLR viability: 9.3
Shown for CC(C)c1ccc(N2C(=O)CC(Sc3ncccn3)C2=O)cc1 (stereo unspecified) → Bead autofluor: 3590; Mtb hypoxia rep: -13.4; Mtb hypoxia rep growth: -4.0; PrP UTR inh: -0.5; Sa ugtP lethal: 3.3; RN4220 kill: 0.4; BJeLR viability: 0.4

Continued:
SMILES	Bead autofluor	Mtb hypoxia rep	Mtb hypoxia rep growth	PrP UTR inh	Sa ugtP lethal	RN4220 kill	BJeLR viability
CCc1ccc(C(=O)COC(=O)c2nn(C)c(=O)c3ccccc23)cc1	3274	11.9	1.5	-9.8	2.7	7.7	-5.9
O=C(NNC(=O)C1CC=CCC1C(=O)O)c1ccc(Cl)cc1 (stereo unspecified)	4134	3.1	3.5	-4.2	-8.6	-1.8	-0.3
COc1c(C=NNC(N)=S)c(C)nn1-c1ccccc1	nt	nt	nt	nt	0.6	-1.9	nt
O=C(COc1ccc([N+](=O)[O-])cc1)NCc1ccccc1	3192	-0.1	-2.5	-11.0	1.7	-0.7	-11.2
Cn1nc(C(F)(F)F)cc1Oc1ncc(C(F)(F)F)cc1Cl	4593	2.1	-0.2	-16.7	1.9	9.0	4.3
Cc1nc2c(C(F)(F)F)cccc2c2c1CCS2	3337	-5.2	1.5	15.8	8.2	63.4	-19.2
CCOC(=O)c1c[nH]c2c([N+](=O)[O-])cc(OC)cc2c1=O	4410	-6.3	9.4	-14.2	29.4	6.9	nt
CC(=O)Nc1ccc(SC(CCN2CCC(C(C)(C)C)CCC2=O)c2ccccc2)cc1 (stereo unspecified)	nt	0.1	-0.9	nt	-23.1	5.5	nt
CCOC(=O)c1cc(CC)sc1N1C(=O)CC(Sc2ccccc2C(=O)O)C1=O (stereo unspecified)	4365	9.6	1.5	-1.3	-1.1	5.0	nt
COC(=O)Cc1c(C)c2c(OCc3nn[nH]n3)cc(C)cc2oc1=O	11447	-0.3	6.0	-13.1	2.4	2.2	-14.7
O=C1NC(c2ccccc2Cl)Nc2ccccc21 (stereo unspecified)	3757	3.0	3.6	4.5	1.3	4.2	-5.5
Cc1cccc(NC(=O)C2CC(=O)N(c3ccc4c(c3)OCCO4)C2)n1 (stereo unspecified)	?	3.5	-0.8	nt	-0.3	0.0	nt
O=S(=O)(c1ccc2c(c1)OCCCO2)N1CCNCC1	2905	12.9	10.5	-16.4	8.1	4.8	-1.5
CCOc1ccccc1NC(=O)C(NCCc1ccc(OC)cc1)c1ccccc1 (stereo unspecified)	6385	0.9	7.8	2.9	5.5	3.0	3.0
C/C(=N/OCO/N=C(\C)c1ccccc1F)c1ccccc1F	2266	nt	nt	-17.9	nt	nt	7.0
O=C(Nc1ncccc1Cl)C(Sc1ccccc1)c1ccccc1 (stereo unspecified)	8987	12.1	4.2	-22.4	-8.6	5.9	3.4
CCOC(=O)CSc1nnc(C)n1N	3735	nt	nt	-12.4	1.5	-0.3	2.4
C/C(=N\NC(=O)c1ccccc1[N+](=O)[O-])c1c(O)cc(C)oc1=O	2539	nt	nt	-0.2	nt	nt	-19.9
COc1ccc(CC(CC(=O)O)C(=O)Nc2ccc(Cl)c(Cl)c2)cc1 (stereo unspecified)	4274	-12.4	-6.0	-14.9	-3.0	2.9	-2.2
CCOC(=O)C1C2COc3ccccc3C2N2C(=O)N(c3ccc(C)cc3)C(=O)[C@]12C (stereo partly specified)	nt	14.6	9.0	nt	-0.3	5.4	nt
CCCn1c(SCC(=O)N2CCCc3ccccc32)nnc1-c1ccccn1	4480	nt	nt	-19.2	4.6	0.8	-6.5
Cc1ccsc1/C=C1/NC(=O)N(Cc2ccc(F)cc2)C1=O	2472	6.9	-0.5	-11.7	1.9	5.2	-5.4
Cc1ccc(NC(=O)CSc2nnc(-c3ccccc3C)o2)cc1C	nt	3.6	-5.1	-5.2	11.2	12.7	-5.8
CCOc1ccccc1C1C(C(N)=O)=C(C)Nc2nc(-c3cccc(C)c3)nn21 (stereo unspecified)	3361	5.8	7.2	-11.8	14.2	4.7	-6.9
COc1cc(C=NNC(=O)c2ccc(F)cc2)ccc1OC(=O)c1ccco1	nt	-4.1	1.0	nt	-0.5	3.4	nt
FC(F)(F)c1nnc2ccc(NCc3ccccc3)nn12	3484	5.9	13.3	-4.2	-2.1	2.8	3.5
O=C1C2C3C=CC(C4CC34)C2C(=O)N1N=Cc1ccc(-c2cccc([N+](=O)[O-])c2)o1 (stereo unspecified)	nt	7.7	1.3	nt	-9.2	0.5	nt
Cn1c2ccccc2c2cc(C=NNC(=O)c3ccc(N)cc3)ccc21	nt	2.8	9.7	nt	-2.2	-5.2	nt
O=C1CSC(c2ccc([N+](=O)[O-])cc2)N1C1CCCCC1 (stereo unspecified)	4585	13.1	2.5	-15.5	1.1	5.3	3.5
CCCOc1cc(N)ccc1C(=O)OCCN(CC)CC	6336	-1.2	-0.6	0.8	4.0	7.3	nt
O=C(O)c1cccc(COc2ccc(CO)cc2Cl)c1	11460	2.8	1.3	93.3*	0.4	8.7	15.2
Cc1ccccc1C(NC(N)=O)c1ccccc1 (stereo unspecified)	16482*	0.3	2.8	-2.1	-9.1	-7.9	0.1
COc1ccc(CC(=O)Nc2cc(S(=O)(=O)N3CCOCC3)ccc2N2CCCC2)c(OC)c1	2898	-0.4	1.1	-26.6	4.7	2.3	nt
COc1ccc(CNc2oc(COc3ccccc3Cl)nc2C#N)cc1	10808	4.5	5.6	-16.5	-20.5	4.2	-1.0
N#CC(c1nc2ccccc2nc1N1CCCC1)S(=O)(=O)c1cccs1 (stereo unspecified)	5764	9.1	10.3	-17.4	47.4	48.5	1.5
CNC(=S)NNC(=O)c1oc2nc(-c3ccccc3)cc(C)c2c1N	4344	-6.3	5.0	-1.6	-5.0	2.6	-0.6

A second format for part of the listing above.
Every second line gives: Bead autofluor	Mtb hypoxia rep	Mtb hypoxia rep growth	PrP UTR inh	Sa ugtP lethal	RN4220 kill	BJeLR viability
- COc1ccc(CNc2oc(COc3ccccc3Cl)nc2C#N)cc1
  10808	4.5	5.6	-16.5	-20.5	4.2	-1.0
- N#CC(c1nc2ccccc2nc1N1CCCC1)S(=O)(=O)c1cccs1 (stereo unspecified)
  5764	9.1	10.3	-17.4	47.4	48.5	1.5

More structures:
SMILES	Bead autofluor	Mtb hypoxia rep	Mtb hypoxia rep growth	PrP UTR inh	Sa ugtP lethal	RN4220 kill	BJeLR viability
CCc1nc(SCC(=O)NC2CCCC2)c2oc3ccccc3c2n1	6510	12.3	5.7	2.4	-16.4	4.5	-3.9
Cc1nn(C)c(C(=O)Nc2c(C)nn(Cc3c(F)c(F)c(F)c(F)c3F)c2C)c1Br	5772	0.4	15.1	11.7	-5.5	0.6	nt
O=C(OCCN1CCOCC1)C1(c2ccccc2)CCCCC1	nt	-1.0	0.8	nt	0.5	17.0	3.7
CCOC(=O)C1C2COc3ccccc3C2N2C(=O)N(c3cccc(F)c3)C(=O)[C@@]12C (stereo partly specified)	nt	-2.4	3.6	nt	-1.9	6.1	nt
O=C(NC1CCCCC1)C(c1ccc(F)cc1)N(Cc1cccs1)C(=O)CN1C(=O)c2ccccc2S1(=O)=O (stereo unspecified)	10711	9.4	11.5	-34.8	0.2	0.9	0.1
O=C(O)/C=C/C(=O)N(CC1CCCO1)C1CC(=O)N(c2c(Cl)cccc2Cl)C1=O (stereo unspecified)	4539	1.2	8.0	-5.7	16.2	3.1	-4.7
O=C(O)c1ccc(Cl)c(S(=O)(=O)Nc2ccccc2C(=O)Nc2ccc(Cl)cc2)c1	5566	7.6	-0.3	0.1	-0.2	0.3	-6.9
CN1C(=O)/C(=C/c2ccccc2OCc2cccc(F)c2)N(C)C1=S	4100	8.3	13.4	-8.8	3.2	2.0	-0.6
Cc1cc(=O)oc2c(CN3CCC(C)CC3)c(O)c(Cl)cc12	5580	1.7	6.0	-22.0	-5.2	-1.3	nt
Cc1cc(-c2nnc(SCC(=O)c3ccc(Cl)cc3)o2)no1	1944	15.1	14.2	-0.2	-13.2	3.8	2.3
CCCCn1nnc(NC(=O)c2ccc(-c3cccc(Cl)c3)o2)n1	11470	4.0	4.2	-13.3	-11.3	9.9	5.6
COc1ccc2c(CC(=O)OCC(=O)N(C)c3c(N)n(Cc4ccccc4)c(=O)[nH]c3=O)coc2c1	?	5.9	10.9	13.5	-4.3	-4.8	nt
O=C1c2cccc3c(N4CCCCC4)ccc(c23)C(=O)N1c1ccc(O)cc1	3575	-2.3	-1.0	-25.1	25.0	-2.4	nt
CCOC(=O)CSc1nc(N)c(C#N)c(CC(C)C)c1C#N	21729*	8.9	5.3	19.2	-3.6	2.3	-4.3
O=C(c1cccn2c(=O)c3ccc(Cl)cc3nc12)N1CCC2(CC1)OCCO2	10756	3.1	9.2	-22.0	3.4	5.5	-1.4
